Assay outcomes deposited in PubChem BioAssay by ICCB-Longwood Screening Facility, Harvard Medical School.
fixLJ activator – B. multivorans fixK reporter activation; B. multivorans fixK-promoter GFP reporter, 18 h; active compounds read high; actives 0.3% (n = 29,000); z-score (no concentration beside the values);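 active = replicate mean overnight rise in green fluorescent reporter signal, 3 or more SD over negative controls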;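 note: score is relative to vehicle wells of the plate; 300 nL library stock went into each well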
* = called active by the depositor.

nr	canonical_smiles	fixLJ activator
1	N#C/C(=C\c1ccc(-c2ccc(Cl)c(C(=O)O)c2)o1)c1nc2ccccc2[nH]1	-1.03
2	COc1cccc(NC(=O)N(Cc2cn(C)c3ccccc23)C2CCCCC2)c1	-0.73
3	O=c1c2cccnc2n(Cc2cccc(F)c2)c(=O)n1Cc1ccc(F)cc1	0.83
4	COc1ccc(C)cc1-n1c(-c2ccc(Cl)cc2)cc2c1CC(C)(C)CC2=O	-0.49
5	CCOc1cc(/C=C(\C#N)C(=O)Nc2ccccc2C)ccc1OCc1cc(=O)n2nc(CC)sc2n1	2.46
6	CCc1cccc(C)c1NC(=O)CC1Oc2ccc(C)cc2NC1=O (stereo not drawn)	-1.02
7	Cc1nnc(SCC(=O)NCc2ccc3[nH]c(=O)[nH]c3c2)s1	1.42
8	Cc1ccccc1Nc1c(-c2c[nH]c3ccccc23)nc2ccccn12	-0.58
9	Cc1cccc(CNC(=O)c2ccc3c(c2)N(C)CCS3)c1	-0.75
10	COC(=O)N1CCCCC1C(=O)NCCc1nc(-c2cccnc2)no1 (stereo not drawn)	-2.09
11	COc1ccccc1N1CCN(C(=O)c2cn(CC(C)C)c(=O)c3c2c2ccccc2n3C)CC1	-0.47
12	COc1cc(OC)c(NC(=O)c2cn(C3CCCC3)c(=O)c3c2c2ccccc2n3C)cc1Cl	-0.12
13	CCOc1ncccc1C(=O)NCC1CCCN(C(=O)Cc2nonc2C)C1 (stereo not drawn)	-0.05
14	Cc1cc(O)c(C(=O)c2cnc3c(c2)COc2ccccc2-3)cc1Cl	0.47
15	COc1ccccc1CNC(=O)c1ccc(CSc2nc3ccncc3n2Cc2ccccc2C)cc1	-1.73
16	COc1ccc(/C=C(\C#N)c2nc3ccccc3c(=O)[nH]2)cc1OC	1.26
17	COc1ccc(CC(=O)Nc2sc3c(c2C(=O)Nc2cccc(Cl)c2)CCCCC3)cc1	0.25
18	COc1ccc(N(C(=O)Cn2nnc3ccccc32)C(C(=O)NCc2ccccc2)c2ccc(F)cc2)cc1 (stereo not drawn)	-2.34
19	O=C(Nc1ccc(Br)cc1F)C(NS(=O)(=O)c1cccc2nsnc12)c1ccccc1 (stereo not drawn)	-0.97
20	Cc1nc2nncn2c(NCc2ccc(F)cc2)c1C	-0.95
21	O=C(NCCCn1nnc2ccccc21)C1NCCc2[nH]cnc21 (stereo not drawn)	0.24
22	COc1ccc(CCNCc2c(C(=O)O)c(C)n(Cc3c(F)cccc3Cl)c2C)cc1OC	-1.85
23	Cc1ccc(NC(=O)c2c(C)nn(-c3ccccc3)c2-n2cccc2)c(Cl)c1	0.68
24	COc1ccc(Cl)cc1NS(=O)(=O)c1cc(Br)cc2c1N(C(=O)C1CC1)CC2	-0.94
25	COc1ccccc1OCCn1c(-c2ccc(Br)cc2)nc2ccccc2c1=O	0.44
26	C=C1/C(=C\C=C2/CCC[C@]3(C)[C@@H]([C@H](C)CCCC(C)(C)O)CC[C@@H]23)C[C@@H](O)C[C@@H]1O	-1.85
27	Cc1ccc(C)c(OCCn2c(-c3ccc(Cl)cc3)nc3ccccc3c2=O)c1C	-0.4
28	CCOc1ccc(NC(=O)c2sc3ccccc3c2Cl)cc1	-0.16
29	Cc1ccc(N2C(=O)CS(=O)(=O)C23C(=O)N(Cc2cccc(F)c2)c2ccccc23)cc1Cl (stereo not drawn)	0.39
30	Cc1ccccc1NC(=O)CC1NCCNC1=O (stereo not drawn)	0.22
31	O=C(CSc1nc2ccccc2n1Cc1ccc(F)c(Cl)c1)N1CCN(c2ccc(F)cc2)CC1	-1.3
32	CCOc1ccc(-n2c(=O)c3c4c(sc3n(CC(=O)NCCCOC)c2=O)CCCCC4)cc1	-0.72
33	Cc1cc(C)n2nc(CNS(=O)(=O)c3ccc(C)c(C)c3)nc2n1	0.25
34	COC(=O)c1cc2sc(C)cc2n1CC(=O)Nc1cccc(SC)c1	-0.94
35	CCC(=O)N1CCc2[nH]cnc2C12CCN(C(=O)c1cc[nH]c1C)CC2	0.01
36	Cc1ccc(S(=O)(=O)Nc2cc(Cl)c3oc4c(c3c2)CCCC4)cc1	0.22
37	COc1ccc(-n2c(=O)c3ccc(C(=O)NCc4ccc(C)cc4)cc3n(Cc3ccc(F)cc3Cl)c2=O)cc1	-0.43
38	COc1ccc(-c2nc3ccccc3o2)cc1NC(=O)c1cc([N+](=O)[O-])ccc1N1CCOCC1	-1.81
39	CC(=O)NC1CN(c2ccnc(C)n2)CC1c1ccc(C)o1 (stereo not drawn)	0.43
40	COc1ccc(C(=O)N2CCC(C(=O)Nc3ccccc3Cl)CC2)cc1	-0.61
41	CCOC(=O)N1CCc2c(sc3c2C(=O)NC(c2cc(OC)c(OC)c(OC)c2)N3)C1 (stereo not drawn)	-1.94
42	COc1ccccc1CNC(=O)c1ccc(CS(=O)(=O)c2c(Cl)cccc2Cl)o1	-1.07
43	CCOc1ccccc1NC(=O)c1cc2c(Cl)nc3ccccc3c2s1	-0.1
44	CC(C)CN(C)C(=O)[C@]12COCC1CN(C(=O)Cn1nc3ccccc3n1)C2 (stereo partly drawn)	-1.03
45	CCOC(=O)c1c(-c2ccc(Br)cc2)csc1NC(=O)c1ccc(F)cc1	1.19
46	CCN1C(=O)c2ccccc2S(=O)c2ccc(C(=O)NCc3ccc(OC)cc3)cc21 (stereo not drawn)	-1.34
47	O=C(Cc1ccccn1)NC(c1cnc2ccccc2c1)C1CC(O)C1 (stereo not drawn)	0.22
48	COc1ccccc1CNC(=O)CCCCn1c(=O)c2ccccc2n(Cc2ccccc2F)c1=O	-1.1
49	Cc1ccc(O)c(C(=O)N2CCCC2c2nc(-c3ccccc3)no2)c1 (stereo not drawn)	-0.94
50	O=C(Nc1cc(C(=O)N2CCCCC2)ccc1Cl)N1CCOCC1	-0.76
51	O=C(NC1CCCC1)c1ccc2c(c1)N(Cc1ccc(C(F)(F)F)cc1)C(=O)c1ccccc1S2	0.02
52	O=C(CN1C(=O)COc2ccc(S(=O)(=O)N3CCCC3)cc21)N1CCN(c2ccc(Cl)cc2)CC1	0.3
53	C[C@@H](O)[C@H]1C(=O)N2C(C(=O)O)=C(SCCN=CN)C[C@H]12	-0.55
54	CCOc1ccc(NC(=O)c2c(NC(=O)Cc3ccccc3)sc3c2CCCCC3)cc1	-2.16
55	CC(C)C1C=CCN1S(=O)(=O)c1ccc(-c2cc(C(F)(F)F)[nH]n2)o1 (stereo not drawn)	1.56
56	CCOC(=O)c1cc2c(=O)n3ccccc3nc2n(CC2CCCO2)c1=NC(=O)c1ccc(F)cc1 (stereo not drawn)	-0.39
57	COc1cccc(OCCSc2nc(C)c(Cc3ccccc3)c(=O)[nH]2)c1	0.26
58	CCOc1ccc(OCC)c(NC(=O)C(NS(=O)(=O)c2ccc(Br)s2)c2ccccc2)c1 (stereo not drawn)	-2.29
59	CC(C)(C)c1ccc(C(=O)N2CCCCC2CCN2CCCCC2)cc1 (stereo not drawn)	-0.97
60	CCc1cccc(CC)c1N(COC)C(=O)Cn1c(C)nc2ccccc21	-2.46

More compounds:
nr	canonical_smiles	fixLJ activator
61	CCOc1ccc(-c2nc(SCC(=O)NCCOC)c(-c3ccc(OC)c(OC)c3)[nH]2)cc1	-0.22
62	CC1CCc2[nH]nc(C(=O)N3CCC(CCN4CCCC4=O)CC3)c2C1 (stereo not drawn)	-4.61
63	Cc1nc2cc(CNCc3cc(CC(C)C)n[nH]3)ccc2n1C	0.37
64	Cc1ccc2nc(Nc3ccc(Br)cc3)nc(-c3ccccc3)c2c1	-0.88
65	CCCN(CCOC)C(=O)NCc1ccc2[nH]c(C)cc2c1	-2.26
66	CCOC(=O)c1c(NC(=O)c2cc(=O)c3ccc(C)cc3o2)sc(C)c1C	-0.96
67	CC(C)OC(=O)C(C(=O)C(F)(F)F)c1cc(NS(=O)(=O)c2ccc3c4c(cccc24)C(=O)N3)ccc1O (stereo not drawn)	-0.5
68	CNC(=O)c1ccc2c(c1)N=C(C)c1cc(C)ccc1S2	-1.22
69	CCc1ccc(NC(=O)c2sc3nc(C)cc(C)c3c2NC(=O)c2ccccc2OC)cc1	-2.35
70	Clc1ccc(-c2cn3cc(Cc4ccccc4)sc3n2)cc1	-2.14
71	Cc1ccc(NC(=O)/C(C#N)=C/c2cc(C)n(-c3ccc(Br)cc3)c2C)cc1C	-1.91
72	CCN1CCN(Cc2c(O)ccc3oc(C)c(C(=O)Nc4ccc(OC)c(Cl)c4)c23)CC1	-1.35
73	Cc1ccc(Cn2c(C(=O)NCc3ccccc3Cl)cc3sccc32)cc1	-0.36
74	CCOC(=O)c1ccc(NC(=O)c2nc(S(=O)(=O)Cc3ccccc3)ncc2Cl)cc1	0.81
75	COc1cccc(OCc2nc(C3CC34CCCCC4)n[nH]2)c1 (stereo not drawn)	-0.18

Three consecutive records already listed:
nr	canonical_smiles	fixLJ activator
73	Cc1ccc(Cn2c(C(=O)NCc3ccccc3Cl)cc3sccc32)cc1	-0.36
74	CCOC(=O)c1ccc(NC(=O)c2nc(S(=O)(=O)Cc3ccccc3)ncc2Cl)cc1	0.81
75	COc1cccc(OCc2nc(C3CC34CCCCC4)n[nH]2)c1 (stereo not drawn)	-0.18

Continued.
nr	canonical_smiles	fixLJ activator
76	Cc1ccc2nc(-c3ccc(NC(=O)COc4ccc(Br)cc4Br)cc3)sc2c1	1.22
77	c1ccc2nc(N3CCNCC3)ccc2c1	-0.85
78	Cc1ccccc1OCCCCn1c(CCNC(=O)C(C)(C)C)nc2ccccc21	-1.87
79	COc1cccc(C2CC(=O)Nc3cc4c(cc32)OCCO4)c1OC (stereo not drawn)	-1.18
80	COc1ccc(-c2nc3ccccc3o2)cc1NC(=O)c1ccc(-c2ccc(Br)cc2)o1	-1.04
81	COC(=O)c1c(Oc2ccc(OC)cc2)nnc(-c2ccccc2)c1-c1ccccc1	-0.35
82	O=C1CC[C@@]2(O)[C@H]3Cc4ccc(O)c5c4C2(CCN3CC2CC2)[C@H]1O5	-0.98
83	COc1cccc(N2CCN(c3c4c(nc5nncn35)CCC4)CC2)c1	-1.01
84	CCc1cccc(C)c1NC(=O)c1cccc(C(=O)Nc2c(C)cccc2CC)c1	-4.14
85	O=C(Cn1c(=O)n(Cc2ccc(F)cc2)c(=O)c2sc3ccccc3c21)NCc1ccccc1	-1.03
86	Cc1ccc(C(=O)Nc2onc3c2CCCC3)cc1	-1.25
87	O=C(NCCCN1CCC(O)CC1)N1CCN(C2Cc3ccccc3C2)CC1	1.19
88	CC(C)Cc1cc(C(=O)N2CCCOC(Cn3cccn3)C2)on1 (stereo not drawn)	-2.7
89	Cc1cccc(C)c1OCc1nc2c3cnn(-c4ccccc4F)c3ncn2n1	1.64
90	COc1cc(OC)c(C2Nc3ccccc3-c3nnc(SCc4ccccc4)nc3O2)cc1OC (stereo not drawn)	-3.31

A few values from the list:
For fixLJ activator, no. 86 shows -1.25
For fixLJ activator, no. 79 shows -1.18

The listing continues.
nr	canonical_smiles	fixLJ activator
91	CCc1c(C)sc(NC(=O)c2cc(-c3cccc(Cl)c3)on2)c1C#N	-0.79
92	COc1ccc(NC(=O)Nc2cc(-c3cn4cccnc4n3)ccc2OC)cc1	-2.88
93	Cn1ncc2c(=O)[nH]c(CN3CCCC3c3nc4ccccc4[nH]3)nc21 (stereo not drawn)	-2.12
94	Cc1cccc(C)c1NC(=O)Cn1c(=O)n(CC2CCC(C(=O)NCCc3ccccc3)CC2)c(=O)c2ccccc21 (stereo not drawn)	0.54
95	COC(=O)CCCn1c(-c2ccc(C)cc2)c(C)n2c3c(=O)n(C)c(=O)n(C)c3nc12	-2.26
96	Cc1n[nH]c(C)c1C(N)C(=O)N(CCN(C)C)Cc1ccccc1 (stereo not drawn)	-0.49
97	Cc1cc(C)cc(NC(=O)C2CCCN2S(=O)(=O)c2cccc3nsnc23)c1 (stereo not drawn)	-1.96
98	CCCCC12CN3CC(C)(CN(C1)C3c1c[nH]c3ccccc13)C2=O (stereo not drawn)	-1.75
99	CCn1cc(C(=O)NCCc2ccc(OC)c(OC)c2)c(=O)c2cc(S(=O)(=O)N3CCc4ccccc4C3)ccc21	-1.3
100	COc1ccc(Cl)cc1NC(=O)Cn1c(=O)n(CCCC(=O)NCCc2ccc(OC)c(OC)c2)c(=O)c2ccccc21	-2.32
101	Cc1ccc(-c2nc3cc(NC(=O)c4cc5ccccc5o4)ccc3o2)cc1	-1.07
102	COc1cc(C(=O)Nc2ccc(-c3cc(C(F)(F)F)nn3-c3ccccc3)cc2)cc(OC)c1OC	-2.15
103	CCC(=O)N1CCc2cc(S(=O)(=O)CCC(=O)NCc3ccc(F)cc3)ccc21	-1.36
104	Cc1cc(CC2CN(Cc3ccc(C)c(Cl)c3)CC2O)n[nH]1 (stereo not drawn)	-1.22
105	COc1ccccc1Nc1nc(C)nc(N)c1S(=O)(=O)c1ccccc1	-0.89

Part of the list above, with each value named.
[93] Cn1ncc2c(=O)[nH]c(CN3CCCC3c3nc4ccccc4[nH]3)nc21 (stereo not drawn)
  fixLJ activator: -2.12

[97] Cc1cc(C)cc(NC(=O)C2CCCN2S(=O)(=O)c2cccc3nsnc23)c1 (stereo not drawn)
  fixLJ activator: -1.96

[105] COc1ccccc1Nc1nc(C)nc(N)c1S(=O)(=O)c1ccccc1
  fixLJ activator: -0.89

Remaining list, next part
nr	canonical_smiles	fixLJ activator
106	Cc1cc(=O)n2nc(N(C)CC(=O)NCc3cccc(Br)c3)sc2n1	-0.37
107	Cc1cnc(C(=O)N2CC(c3ccccc3)OC(C3CC3)C2)cn1 (stereo not drawn)	-0.14
108	CCCc1nc(C)c(CNC(=O)c2cccc(NC(=O)C3CCCO3)c2)s1 (stereo not drawn)	-0.02
109	Cn1cc(NC(=O)CN2CCc3onc(-c4ccc(F)c(F)c4)c3C2)cn1	-1.23
110	COCC1C(NC(=O)c2ccc(OC)cc2O)C2CCOC21 (stereo not drawn)	-1.19
111	Cc1ncc(C(=O)N2CC3c4ccccc4OC[C@]3(C(=O)O)C2)c(C)n1 (stereo partly drawn)	1.5
112	CCOC(=O)c1ccc(NC(=O)C2Cc3ccccc3CN2S(=O)(=O)c2ccc(Cl)cc2)cc1 (stereo not drawn)	1.75
113	COc1cccc(Nc2nc3ccccc3c3nncn23)c1	-1.93

By substructure, those above with a tert-butyl group (2)
nr	canonical_smiles	fixLJ activator
59	CC(C)(C)c1ccc(C(=O)N2CCCCC2CCN2CCCCC2)cc1 (stereo not drawn)	-0.97
78	Cc1ccccc1OCCCCn1c(CCNC(=O)C(C)(C)C)nc2ccccc21	-1.87

An excerpt; the hit share may differ from the screen's.
